Bioassay records as filed in PubChem.
UUG fidelity: modulators of yeast start codon fidelity, primary screen, whole organism, S. cerevisiae, single point, plate reader; S. cerevisiae UUG-firefly luciferase reporter, luminescence/redox ratio; activity score, % at 18.7 µM; 0.13% of 350,000 active; AID 602363, 2012;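 active means replicate mean at a twofold rise or more, about +100% in these data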;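 further: firefly luciferase made from a UUG start codon reports start codon fidelity; reporter light over untreated wells divided by growth signal over untreated wells; some hits fall short of that in this replicate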
CSC inhib: cancer stem cell viability inhibitors, primary screen, luminescence; cancer stem cell-like cells viability; inhibition, % at 7.5 µM; 1.1% of 300,000 active;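 active means mean at 75% or more and at least half the replicates too; inconclusive means mean and replicates disagree; tested in HMLE shEcad cells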;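 further: 0% = median of negative and 100% = median of positive control wells; the first replicate is given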
HIV Env fusion: inhibitors of HIV-1 Env-driven cell-cell fusion, primary screen, HeLa-JRFL effector, CEM21 target cells, luciferase | inhibition, % at 12.3 µM | 1.1% of 360,000 active | AID 651610, 2012;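 active means mean replicate inhibition score of at least 50 and every replicate individually at or above 50; inconclusive means only one of the two criteria met; inactive means mean below 50 and not all replicates reaching 50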;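 further: 0% = plate neutral controls and 100% = maraviroc near 300 nM; one replicate is shown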
PABP FP inh: PABP poly(A) RNA binding inhibitors, primary screen, biochemical, fluorescence polarization, uHTS | Polyadenylate-binding protein 1 (Homo sapiens), P11940 | inhibition, % at 35 µM | 1% of 290,000 active;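 active means 50% or more with normal probe brightness, or confirmed in later tests; inconclusive means above 50% with abnormal brightness, or retests that disagree; inactive means below 50% or failed in later tests; about a fifth of its hits are not listed in these tables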;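 further: calls also rest on retests at 20 µM and on dose response follow-up; controls were probe without protein and protein plus probe with vehicle; some compounds called inactive have numbers as strong as hits; many hits fall short of the cut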
Target sequence (P11940 whole entry, looked up): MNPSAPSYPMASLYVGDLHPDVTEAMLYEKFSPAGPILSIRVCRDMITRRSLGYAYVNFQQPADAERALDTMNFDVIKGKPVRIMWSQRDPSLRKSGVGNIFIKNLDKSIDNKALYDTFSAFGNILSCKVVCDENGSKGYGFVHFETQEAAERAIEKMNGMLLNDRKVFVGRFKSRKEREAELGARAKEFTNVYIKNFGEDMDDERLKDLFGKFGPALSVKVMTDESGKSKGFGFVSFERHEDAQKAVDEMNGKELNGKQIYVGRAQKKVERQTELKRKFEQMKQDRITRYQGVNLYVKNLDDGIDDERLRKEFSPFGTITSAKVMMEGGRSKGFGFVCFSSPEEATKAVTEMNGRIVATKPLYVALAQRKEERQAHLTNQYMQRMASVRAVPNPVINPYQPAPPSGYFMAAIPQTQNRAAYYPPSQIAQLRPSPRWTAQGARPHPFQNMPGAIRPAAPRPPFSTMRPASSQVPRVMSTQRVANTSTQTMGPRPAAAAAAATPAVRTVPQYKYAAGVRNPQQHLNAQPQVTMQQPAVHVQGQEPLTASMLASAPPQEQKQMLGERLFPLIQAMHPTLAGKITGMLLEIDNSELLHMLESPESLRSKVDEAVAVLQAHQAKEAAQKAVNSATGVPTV
Rce1 inhib: yeast Rce1p protease inhibitors, primary screen, biochemical, fluorescence, cell-free homogeneous | yeast membranes, quenched prenylated peptide cleavage fluorescence | 0.27% of 290,000 active | calls only | CAAX prenyl protease 2 (Saccharomyces cerevisiae (strain ATCC 204508 / S288c)), Q03530 | AID 2563, 2010;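 active means fall in fluorescence gain of 50% or more versus controls, with final raw signal at or below 3038400; inconclusive means same 50% fall but final raw signal above 3038400; inactive means fall in fluorescence gain under 50%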;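 further: plate controls were neutral control wells for no effect and wells lacking membranes for full effect; tested at 10 µM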
Target sequence (Q03530 whole entry, looked up): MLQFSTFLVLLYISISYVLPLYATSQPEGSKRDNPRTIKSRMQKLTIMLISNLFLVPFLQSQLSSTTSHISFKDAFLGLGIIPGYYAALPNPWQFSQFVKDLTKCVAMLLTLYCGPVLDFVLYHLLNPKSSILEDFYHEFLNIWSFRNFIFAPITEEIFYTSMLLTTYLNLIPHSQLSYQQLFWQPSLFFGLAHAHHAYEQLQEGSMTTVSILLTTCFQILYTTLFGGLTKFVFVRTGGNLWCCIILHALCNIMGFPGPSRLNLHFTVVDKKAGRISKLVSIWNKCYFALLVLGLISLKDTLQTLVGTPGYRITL
MT1-MMP act inh: blockers of MT1-MMP proenzyme processing, primary screen, HT1080 RFP-PRO-GFP cells, GFP/RFP fluorescence; Matrix metalloproteinase-14 (Homo sapiens), P50281; GFP/RFP ratio fluorescence, overnight; percent of plate control window, DMSO zero; GFP/RFP ratio change, % at 20 µM; 0.061% of 360,000 active;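 active means GFP/RFP ratio change of at least 30% with cell ATP level not reduced by more than half and red fluorescence within 50% of control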; further: strong numbers were not always called active
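Test system: HT1080 cells expressing an RFP-PRO-GFP fluorescent reporter construct / Compound dosing: single-point 20 µM compound, 1% DMSO / Schedule: cells overnight before dosing, compound overnight, 37 °C, 5% CO2 / Evaluation: GFP/RFP fluorescence ratio / Control set: DMSO and RFP-L50D-GFP cell wells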
eIF4H FP inh: human eIF4H binding inhibitors, primary screen, translation initiation inhibitor project, biochemical, uHTS, fluorescence polarization; Eukaryotic translation initiation factor 4H (Homo sapiens), Q15056; eIF4H fluorescence polarization binding assay; inhibition, % at 35 µM; 0.94% of 290,000 active;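 active means 50% or more with normal probe brightness, or confirmed in later tests; inconclusive means above 50% with abnormal brightness, or retests that disagree; inactive means below 50% or failed in later tests; about a fifth of its hits are not listed in these tables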;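 further: calls also rest on retests at 20 µM and on dose response follow-up; 0% = protein and probe with vehicle and 100% = probe without protein; strong numbers were not always called active; many hits fall short of the cut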
eIF4H FP inh retest: recorded beside eIF4H FP inh, whose call it bears; inhibition, %; compound at 20 µM; confirmation average;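 mean of two retest wells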
PABP FP inh retest: also measured in PABP FP inh; calls as there; inhibition, %; compound at 20 µM; confirmation repeats;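 mean of two retest wells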
MT1-MMP act inh RFP: recorded beside MT1-MMP act inh, whose call it bears; RFP signal change, %; measured here: RFP expression control read;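 0 = vehicle wells; hits needed this value within 50% of zero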
An asterisk follows results filed as active; i = inactive; ? = inconclusive; . = no result given. The list is partial; rates above refer to the full screens.

SMILES	UUG fidelity	CSC inhib	HIV Env fusion	PABP FP inh	Rce1 inhib	MT1-MMP act inh	MT1-MMP act inh RFP	eIF4H FP inh	others
O=c1nc(-c2ccccc2)cc(-c2ccccc2)[nH]1	-5	-18	6	1	i	4	-7	4
Cc1nn(Cc2ccc(C(=O)n3cccn3)o2)c(C)c1Br	-9	-10	-43	2	i	-1	5	-9
CC(OC(=O)c1ccc(S(=O)(=O)NCc2ccco2)cc1)C(=O)Nc1ncc(Cl)cc1Cl (stereo unspecified)	.	12	5	-8	i	3	5	8
COC(=O)CCCC(=O)NC1CC(C)(C)Cc2c1cnn2-c1ccc(C)cc1 (stereo unspecified)	-8	6	14	5	i	-1	0	-9
CC(C)=C(NC(=O)c1ccccc1)C(N)=O	-16	-6	-9	-14	i	-2	2	-5
O=C(Nc1nnc(-c2cccnc2)o1)c1cccc([N+](=O)[O-])c1	.	16	.	4	i	.	.	5
CCOC(=O)Cn1nnnc1CN(Cc1cccs1)Cc1cc2cc(C)cc(C)c2[nH]c1=O	-5	0	-8	-2	i	0	-1	-12
Cc1ccc(NC(=O)CSc2cccc3cccnc23)c(C)c1	-1	-3	1	0	i	1	-3	26
COc1ccccc1C(=O)N/C(=C/c1ccc2c(c1)OCO2)C(=O)Nc1cccc(C(=O)O)c1	-27	12	-8	8	i	0	1	-12
N#CCSc1nc2ccccc2c(=O)n1CCCC(=O)NCC1CCCO1 (stereo unspecified)	-10	-20	-14	-14	i	-3	-2	-14
O=c1cc(O)sc2ccccc12	.	-2	.	4	i	-1	3	-9
COc1ccccc1C1=NOC(C)(c2nnc(Cc3ccccc3)o2)C1 (stereo unspecified)	-15	-23	-3	.	i	3	-2	.
CCOC(=O)CC1=NN(c2ccccc2)C(=O)C1	.	-14	16	5	i	-1	2	3
CC1=C(C#N)C(c2ccc(O)cc2)C(C#N)=C(C)N1	-21	-10	5	0	i	4	4	-2
O=C(Cc1ccc(F)cc1)Nc1nc(-c2ccc(F)c(F)c2)cs1	-19	7	-37	1	i	-3	-17	-7
O=C(O)c1ccccc1OCCN1CCCC1=O	-12	-2	-2	8	i	3	3	-1
Cc1ccc(CCN2CC(C(=O)NC3CCCC3)CC2=O)cc1 (stereo unspecified)	-4	1	.	-1	i	2	1	-4
CCC(=O)c1c(OCc2ccccc2)ccc2c(C)cc(=O)oc12	.	7	.	-3	i	.	.	2
CCN1C(=O)C(=CC=CN(C)c2ccccc2)SC1=S	3	.	-46	.	.	-120	-2	.
Cc1cc(C)n(Cc2ccc(C(=O)Nc3ccc(Br)cc3C)o2)n1	.	6	11	4	i	1	-4	3
CC(C)N(c1ccccc1)c1ccc(NC(=O)COC(=O)CCN2C(=O)c3cccc([N+](=O)[O-])c3C2=O)cc1	-25	-12	29	-4	i	3	1	18
Cc1nnc(NC(=O)C2CC(=O)N(Cc3ccccc3)C2)s1 (stereo unspecified)	-15	-11	.	25	i	2	4	2
O=[N+]([O-])c1cc(C(F)(F)F)cc([N+](=O)[O-])c1NCCNC(=S)Nc1cccc(F)c1	.	12	-21	12	i	8	-2	6
O=C(COC(=O)c1ccc2c(c1)OCO2)Nc1cccc(F)c1	-9	7	.	.	.	1	-2	.
Cc1c(OCC(=O)N2CCN(c3ccccc3)CC2)ccc2c3c(c(=O)oc12)CCCC3	0	0	10	10	i	3	-4	-5

Grouped by structure, the compounds so far with an NH in an aromatic ring
SMILES	UUG fidelity	CSC inhib	HIV Env fusion	PABP FP inh	Rce1 inhib	MT1-MMP act inh	MT1-MMP act inh RFP	eIF4H FP inh	others
O=c1nc(-c2ccccc2)cc(-c2ccccc2)[nH]1	-5	-18	6	1	i	4	-7	4
CCOC(=O)Cn1nnnc1CN(Cc1cccs1)Cc1cc2cc(C)cc(C)c2[nH]c1=O	-5	0	-8	-2	i	0	-1	-12

Other entries:
SMILES	UUG fidelity	CSC inhib	HIV Env fusion	PABP FP inh	Rce1 inhib	MT1-MMP act inh	MT1-MMP act inh RFP	eIF4H FP inh	others
COc1ccc(OCCCCc2c(C)n[nH]c2C)cc1	-15	.	-25	.	i	2	-17	.
COc1ccc(C)cc1NC(=O)COC(=O)c1c(-c2ccccc2)noc1C	7	.	33	.	.	-11	-24	.
CC1CC1C(=O)OCC(=O)Nc1cc(S(=O)(=O)N2CCCCC2)ccc1Cl (stereo unspecified)	-7	10	11	.	.	2	2	.
CC(CCc1ccco1)NC(=O)Cn1nc(Cc2ccncc2)c2ccccc2c1=O (stereo unspecified)	1	1	.	3	i	0	4	3
COc1ccccc1C(=O)N=C1SC2CS(=O)(=O)CC2N1c1ccccc1 (stereo unspecified)	-21	.	-2	1	i	0	3	3
CCOc1ccc(N/C=C/C(=O)c2ccccc2)cc1	-18	9	-346	14	i	-2	-1	5
COc1cc(CN(C)C(=O)C(=O)c2c[nH]c3ccccc23)ccc1O	-31	.	6	.	.	2	3	.
COc1ccc(NC(=O)CSc2nc(C)cs2)cc1	.	-6	-25	1	i	-1	3	-6
CC(C)(C)NC(=O)NC(=O)COC(=O)c1ccc2c(c1)S(=O)(=O)N=C1CCCCCN12	-2	-21	9	-7	i	3	7	-8
c1coc(CNc2ncnc3sc4c(c23)CCCCC4)c1	-9	-3	.	1	i	-6	-11	2
CCc1nc(NCCCCCO)c2nnn(Cc3ccccc3F)c2n1	-13	-8	.	-6	i	-1	-7	-8
CC1(C)CC(=O)C2=C(C1)OC(N)=C([N+](=O)[O-])C2c1cccs1 (stereo unspecified)	-27	4	-2	-3	i	1	5	9
Cc1nc2cc(O)ccc2n1C	-28	-9	-32	1	.	0	2	0
Cc1ccc(CCNc2ccccc2)c[n+]1[O-]	-6	-12	-116	-12	i	1	6	3
COc1ccc(-c2c3c(=O)n(C)c(=O)n(C)c3cn2N2CCOCC2)cc1	-10	3	-2	-8	i	2	1	0
COCc1cc(=O)n2[nH]cc(-c3ccsc3)c2n1	-6	-9	10	10	i	-1	0	5
O=C1C2C(c3ccccc3)CC=CC2[C@H](c2ccoc2)N1Cc1ccccc1 (stereo partly specified)	-11	19	?	-7	i	-9	-8	2
COc1ccc(-c2n[nH]c(=S)n2-c2ccc(C)cc2C)cc1	2	-18	-8	-9	i	3	-2	-4
CCOc1cc(N2CCOCC2)c(OCC)cc1NC(=O)[C@H](C)N1C(=O)C2CC=CCC2C1=O (stereo partly specified)	.	-7	6	-9	i	4	2	-4
CCOC(=O)c1cnc2c(Cl)cccc2c1NCCN1CCOCC1	.	-10	-7	-10	i	-2	1	9
COc1ccc(C2N(c3cc(Cl)ccc3OC)C(=O)C3CCCN32)cc1 (stereo unspecified)	1	-21	-9	-15	i	6	-2	-3
Nc1ccc(CCc2ccccn2)cc1	-7	.	3	.	.	2	1	.
NC(=S)n1[nH]c(-c2ccc([N+](=O)[O-])cc2)c(N=Nc2ccccc2[N+](=O)[O-])c1=O	.	.	-7	-31	.	9	-7	38
Cc1cc(C)c(-c2csc(NC(=O)c3cc([N+](=O)[O-])ccc3N3CCOCC3)n2)c(C)c1	.	-4	-26	-2	i	-17	-16	0
C/C(Sc1nnc(Cc2ccccc2)o1)=C(/O)c1ccccc1	-6	7	.	9	i	1	1	8

New compounds follow.
SMILES	UUG fidelity	CSC inhib	HIV Env fusion	PABP FP inh	Rce1 inhib	MT1-MMP act inh	MT1-MMP act inh RFP	eIF4H FP inh	others
CCOc1ccc(NC(=O)CN(C)C(=O)c2ccc3[nH]c4c(c3c2)CC(C)CC4)cc1OCC (stereo unspecified)	-10	-8	-10	.	i	2	1	.
CCC(C)c1ccccc1NC(=O)COC(=O)C1=NN(c2ccccc2)C(=O)CC1 (stereo unspecified)	-7	2	-10	.	.	1	3	.
Nc1ccc(Nc2nc(-c3ccncc3)cs2)cc1	-19	26	.	-8	i	2	-18	-9
COc1ccc(-n2c(N)c(C#N)c3ccc([N+](=O)[O-])cc3c2=O)cc1	.	-14	-3	7	i	-13	-4	36
Cn1c(SCc2nc3ccccc3[nH]2)nnc1-c1cccnc1	-24	-5	-9	-6	i	2	-2	-8
Cc1ccc(C(C(=O)NCc2ccco2)N(C(=O)CNC(=O)c2cccs2)c2c(C)cccc2C)cc1 (stereo unspecified)	.	3	-3	0	i	-8	-5	1
CCC(=O)N1CCc2cc(Br)cc(S(=O)(=O)CC(=O)OC)c21	-10	1	.	-11	i	2	2	-7
CCOc1cc(S(=O)(=O)N2CCCC2)ccc1Cl	14	-1	.	0	i	3	4	5
CC(C)(C)OC(=O)C[C@@H]1C/C=C\C[C@H](CC(=O)NCCO)C(=O)NC[C@@H](c2ccccc2)OC1=O	-11	-12	4	.	.	2	6	.
O=C(NC1CCCCC1)C(=O)c1c[nH]c2ccccc12	-16	4	-39	1	i	-1	2	4
Cc1ccc(S(=O)(=O)Nc2cccc(Cl)c2)cc1NC(=O)c1cccnc1	8	-9	8	-8	i	-1	-9	-2
CCOc1ccc(NC(=O)CN2CCN(CC(=O)Nc3ccc(C(N)=O)cc3)CC2)cc1	-10	-2	-8	1	i	3	5	-2
Cc1c(N=Cc2c(O)n(C)c(=O)c3ccccc23)c(=O)n(-c2ccccc2)n1C	-16	-3	.	2	.	-9	-5	-8
CC1(c2ccccc2)NC(=O)N(CC(=O)Nc2cccc(C#N)c2)C1=O (stereo unspecified)	-11	-3	7	-2	i	8	1	-6
CCCCN1C(=O)C(=O)N(CC(=O)N2CCN(c3ccccc3)CC2)C1=O	.	.	0	.	i	4	5	.
O=C(NNC(=O)C1CCC1)c1ccc(F)cc1	-9	.	20	.	.	-3	9	.
OCc1nc(CO)n(Cc2ccccc2)n1	.	.	3	4	i	0	-1	-2
Cc1ccc(CNC(=O)C2CC(c3cccc(F)c3)=NO2)cc1 (stereo unspecified)	-17	-1	?	-9	i	-2	3	1
Cc1ccccc1NC(=O)Cn1cnc2c(oc3nc4c(cc32)CCCC4)c1=O	0	-9	0	-2	i	0	-2	6
Cc1cc(=O)oc(C)c1C(=O)NCC(C)NC(=O)c1c(C)cc(=O)oc1C (stereo unspecified)	-13	-13	.	9	i	1	5	8
Cc1nn(-c2ccc(Br)cc2)c(=O)c2ccccc12	-8	13	-46	5	i	-4	-3	-6
O=c1c2cnn(-c3ccccc3)c2nnn1/N=C/c1cccnc1	-10	11	.	-6	i	5	4	-7
CC(=O)NCCn1c(C)cc2ccccc21	-2	-1	-22	93*	i	-2	5	94*	eIF4H FP inh retest=97*;PABP FP inh retest=64*
CCOc1ccc(OCC)c(NC(=O)C2CCN(c3ncccn3)CC2)c1	-4	-7	16	-6	i	-6	3	3
Cc1cc(C)n(CCC(=O)N2c3ccccc3CC2C)n1 (stereo unspecified)	-26	-6	-7	12	i	-5	1	4
CN(C)c1nc(Nc2ccc(Cl)c(Cl)c2)nc(N(C)C)n1	-9	-15	28	-2	i	-2	-5	-9
NNC(=O)CN1CCCc2ccccc21	.	-17	-212	-10	i	4	4	4
O=C(CN1C(=O)c2cccc3cccc1c23)Nc1ccc2c(c1)OCO2	-15	.	-3	4	i	3	2	-1
